HNF4A DNA FP: change in binding of human HNF4 alpha to DNA; HNF4a-FITC DNA binding, fluorescence polarization, 1 h; activity change, % at 10 µM; P41235; hit rate 0.3% among 360,000; in the data active = activity change above about 30%, passing the limit was not always enough;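 note: controls were the assay level and a saturating level of protein; the project sought stronger binding though the title names inhibitors; some compounds called inactive have numbers as strong as hits; positive values seem to mean higher polarization but the record does not say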
Target sequence (P41235 whole entry, looked up): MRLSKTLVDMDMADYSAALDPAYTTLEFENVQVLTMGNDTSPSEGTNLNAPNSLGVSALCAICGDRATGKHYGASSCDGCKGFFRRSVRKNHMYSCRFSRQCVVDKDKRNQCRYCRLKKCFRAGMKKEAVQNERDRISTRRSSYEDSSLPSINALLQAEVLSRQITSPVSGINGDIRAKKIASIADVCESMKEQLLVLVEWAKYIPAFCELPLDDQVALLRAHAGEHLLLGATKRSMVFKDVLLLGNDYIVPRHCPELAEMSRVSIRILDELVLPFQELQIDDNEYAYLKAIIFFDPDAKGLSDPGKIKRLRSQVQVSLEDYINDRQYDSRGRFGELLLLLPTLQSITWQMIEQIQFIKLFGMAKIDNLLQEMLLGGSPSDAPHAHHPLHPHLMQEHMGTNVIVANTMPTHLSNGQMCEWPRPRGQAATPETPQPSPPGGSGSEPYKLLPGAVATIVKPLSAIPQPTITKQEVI
FGF22 binding: binders of recombinant human FGF22 by thermal shift; hit rate 1.5% among 340,000; calls only at 9.99 µM; SYPRO orange fluorescence; percent of sucrose octasulfate shift, DMSO zero; AID 651658;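 active = melting point raised past a set limit in the mean and every replicate; inconclusive = no clear call; three in four hits are not shown here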
Ecoli rRNA inh: selective bacterial rRNA inhibition in E. coli; E. coli WT GFP vs humanized-ribosome RFP mutants, fluorescence, 24 h; stronger effect = lower value; DMSO median 0, no signal -100; GFP signal change (wild-type ribosome), % (concentration not given with the values); hit rate 1.6% among 350,000;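 active = significant combined selectivity score with lowered wild-type GFP, culture density cut under 30%, mutant RFP and density less affected; inactive = any of these conditions unmet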; note: one replicate is shown; some compounds called inactive have numbers as strong as hits
E coli growth: blocks Escherichia coli growth. AID 1053175. OD600, 23 h; stronger effect = lower value. hit rate 0.21% among 330,000. OD600 absorbance (test concentration not listed);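 active = OD600 absorbance below the run mean of sample wells minus 3.6 SD, in any replicate, cut at about 0.56 in these data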;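 note: stock transfer was 300 nL into about 60 µL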
ALR inh: human ALR oxidase inhibition via reduced H2O2 | inhibition, % (test concentration not listed) | hit rate 3.8% among 290,000 | purified ALR, DTT oxidation, H2O2 HRP-luminol luminescence | P55789 | AID 485317;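 active = mean and each replicate at 75% or more; inconclusive = only one of the two met; inactive = neither met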;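 note: stock transfer was 7.5 nL into about 7.5 µL; 0% = neutral wells and 100% = wells with inactivated enzyme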
AF4-AF9 inh: blocks AF4 peptide binding to human AF9. hit rate 0.47% among 350,000. AlphaScreen, biotin-AF4 peptide binding to FLAG-AF9. inhibition, % at 10 µM. P42568;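 active = every replicate reaching a set inhibition limit, whatever the replicate mean, cut at about 25% in these data; inconclusive = mean inhibition reaches that limit but some replicates miss it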;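 note: 0% = plate neutral control median and 100% = total signal loss; the record names both 10 and 1 µM as test concentration; the first replicate is given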
Target sequence (P42568 whole entry, looked up): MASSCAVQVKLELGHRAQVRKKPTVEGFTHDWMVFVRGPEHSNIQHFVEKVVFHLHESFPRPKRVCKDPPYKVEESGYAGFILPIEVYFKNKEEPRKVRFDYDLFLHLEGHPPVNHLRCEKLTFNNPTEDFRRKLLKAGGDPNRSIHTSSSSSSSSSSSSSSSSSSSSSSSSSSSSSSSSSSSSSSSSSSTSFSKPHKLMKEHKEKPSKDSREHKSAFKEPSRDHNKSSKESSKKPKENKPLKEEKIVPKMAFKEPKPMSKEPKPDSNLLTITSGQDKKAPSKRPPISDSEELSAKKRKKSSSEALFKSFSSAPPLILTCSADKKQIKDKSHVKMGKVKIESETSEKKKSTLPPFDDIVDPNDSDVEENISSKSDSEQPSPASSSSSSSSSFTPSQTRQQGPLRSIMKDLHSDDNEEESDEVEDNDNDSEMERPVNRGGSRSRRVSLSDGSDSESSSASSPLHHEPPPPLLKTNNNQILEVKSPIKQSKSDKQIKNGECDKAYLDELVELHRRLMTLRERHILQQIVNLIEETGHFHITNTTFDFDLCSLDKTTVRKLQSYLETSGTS
Vif TR-FRET: inhibitors of Vif binding to APOBEC3G peptide, primary screen, biochemical, TR-FRET, GST-Vif 1-94, biotin-A3G peptide, dose response retest (AID 1117319); inhibition, %; hits with a dose series show IC50 in µM; hit rate 0.57% among 260,000; TR-FRET GST-Vif / biotin-A3G peptide binding; higher % means a stronger effect; test concentration not given here; strong numbers were not always called active;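 active = above the screen mean plus three standard deviations and confirmed in dose response; inconclusive = results disagree or hit not tested in dose response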;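 note: Vif residues 1-94 fused to GST binding biotinylated APOBEC3G peptide 110-148; 0% = full assay without inhibitor and 100% = GST in place of GST-Vif; retest series ran down from 100 µM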
Ecoli rRNA inh OD600: recorded beside Ecoli rRNA inh, whose call it bears; OD600 change, %; measured here: OD600 growth;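 optical density of the mix in the first replicate; 0 = DMSO median and -100 = no signal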
Ecoli rRNA inh RFP: also measured in Ecoli rRNA inh; calls as there; RFP signal change, %; measured here: RFP humanized mutant strains;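 first replicate; 0 = DMSO median and -100 = no signal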
* = called active by the depositor; i = inactive; ? = inconclusive; / = not tested or not shown; + = active, no number. A portion of the library (hit frequency here may not be typical).

SMILES	HNF4A DNA FP	FGF22 binding	Ecoli rRNA inh	Ecoli rRNA inh OD600	Ecoli rRNA inh RFP	E coli growth	ALR inh	AF4-AF9 inh	Vif TR-FRET
COCCn1c(SC(C)C(=O)Nc2ccc(N3CCOCC3)cc2)nnc1-c1ccncc1 (centres undefined)	1.4	i	13	10	2.6	0.7	30	-0.3	-5%
Cn1nnc(NC(=O)c2ccccc2)n1	-0.1	/	/	/	/	0.66	2	/	4%
CC(OC(=O)Cn1cc(C(F)(F)F)ccc1=O)C(=O)NC(C)c1ccc(Cl)cc1Cl (centres undefined)	1.7	i	/	/	/	0.66	/	-1.5	-8%
CC(=O)N1CCN(C(=S)NC(=O)C23CC4CC(CC(C4)C2)C3)CC1	2.5	i	3	5	-0.6	0.67	6	-1.2	-3%
O=C(N/N=C/C=C/c1ccccc1)c1cccc(Br)c1	0.3	+	-5	-1	3.3	/	/	-37	-3%
COc1ccc(OC)c(C(=O)CSc2nnc(C3CC3)n2C2CC2)c1	-0.8	i	-6	2	-0.2	/	/	0.7	-8%
C[C@@H]1CN([C@H](C)CO)C(=O)c2cc(NC(=O)CCCN(C)C)ccc2O[C@H]1CN(C)Cc1ccc(-c2ccccc2)cc1	/	i	6	12	3.7	/	/	7.0	/
O=C(N/N=C/c1ccc(OC(=O)c2ccc(Br)cc2)cc1)c1ccncc1	-1.6	i	4	5	1.3	/	-22	-8.0	/
O=C(CCn1c(=O)[nH]c2ccccc2c1=O)N1CCN(c2cccc(C(F)(F)F)c2)CC1	4.4	/	/	/	/	0.71	-2	/	-5%
O=C(COC(=O)Cc1c[nH]c2ccccc12)Nc1cccc(Br)c1	-0.1	i	/	/	/	/	/	-1.1	-11%
CC1Sc2ccccc2N(Cc2ccc(OC(F)(F)F)cc2)C1=O (centres undefined)	2.8	i	10	-24	-5.6	/	/	-2.6	/
Cc1nn(-c2ccccc2)c(N)c1-c1ccccc1	-0.5	i	-10	-6	-5.7	0.74	30	-0.8	1%
COc1ccc(C(=O)NCC(=O)N2CCC(Cc3ccccc3)CC2)cc1OC	0.9	i	-10	-24	-0.4	0.69	/	1.1	-10%
O=C(CN(Cc1ccco1)C(=O)c1ccc(F)cc1)Nc1ccccc1Br	2.7	i	-9	-19	-3.2	0.69	-6	1.3	/
CC(C)n1c(SCC(=O)N2CCN(C(=O)c3ccco3)CC2)nc2c1c(=O)n(C)c(=O)n2C	2.9	i	-1	-5	-1.6	0.71	-4	8.5	7%
CCC(NS(=O)(=O)c1ccc(OC)cc1)C(=O)NCCc1ccccc1 (centres undefined)	0.1	i	0	-2	-4.0	0.7	-5	-1.9	5%
CCOC(=O)C1CCCN(C(=O)Cc2c(C(=O)O)[nH]c3ccccc23)C1 (centres undefined)	-1.4	/	/	/	/	0.71	/	/	1%
O=C(Nc1ccc(N2CCCC2)c(Cl)c1)c1cccnc1	8.3	/	/	/	/	0.64	-25	/	1%
CCC(C)N=C1CC(C)(C)CC(=O)/C1=C(/O)Cc1ccccc1 (centres undefined)	3.6	/	9	-3	-0.7	/	-14	-2.4	-4%
CCOCN(C(=O)Cn1cnc2ccccc21)c1c(C)cccc1CC	-0.7	i	-6	-7	-3.2	0.7	-46	-1.7	-9%
O=C(CNS(=O)(=O)c1cccc(Br)c1)NCC1CCCCC1	0.0	i	-26	-41	-7.4	0.65	1	-5.9	/
Cc1ccccc1NC(=O)Cc1nc(COC(=O)c2ccc(NC(N)=O)cc2)cs1	7.4	i	-6	-3	5.5	0.73	-11	-2.6	-7%
CCOc1ccccc1/C=C/C(=O)NCC(=O)N1CCC(N(C)C2CCCCC2C)CC1 (centres undefined)	4.4	i	6	0	-0.3	0.67	-1	-0.1	/
O=C(CC1SC(=Nc2ccc(OC(F)F)cc2)N(CCN2CCOCC2)C1=O)Nc1ccc(F)cc1F (centres undefined)	-5.3	i	-46	-72	-9.5	0.68	-6	5.4	-9%
CCCC(=O)NC(NC1CCS(=O)(=O)C1)C(Cl)(Cl)Cl (centres undefined)	0.8	i	16	14	-8.1	0.68	-4	-0.9	-5%

Compound profiles, as listed above. Order of screens: HNF4A DNA FP	FGF22 binding	Ecoli rRNA inh	Ecoli rRNA inh OD600	Ecoli rRNA inh RFP	E coli growth	ALR inh	AF4-AF9 inh	Vif TR-FRET
O=C(CNS(=O)(=O)c1cccc(Br)c1)NCC1CCCCC1 as listed: 0.0	i	-26	-41	-7.4	0.65	1	-5.9	/
CCOCN(C(=O)Cn1cnc2ccccc21)c1c(C)cccc1CC as listed: -0.7	i	-6	-7	-3.2	0.7	-46	-1.7	-9%
O=C(Nc1ccc(N2CCCC2)c(Cl)c1)c1cccnc1 as listed: 8.3	/	/	/	/	0.64	-25	/	1%
COc1ccc(C(=O)NCC(=O)N2CCC(Cc3ccccc3)CC2)cc1OC as listed: 0.9	i	-10	-24	-0.4	0.69	/	1.1	-10%
CCC(C)N=C1CC(C)(C)CC(=O)/C1=C(/O)Cc1ccccc1 (centres undefined) as listed: 3.6	/	9	-3	-0.7	/	-14	-2.4	-4%

(next part)
SMILES	HNF4A DNA FP	FGF22 binding	Ecoli rRNA inh	Ecoli rRNA inh OD600	Ecoli rRNA inh RFP	E coli growth	ALR inh	AF4-AF9 inh	Vif TR-FRET
Cc1ccc(NC(=O)CN(C)C(=O)Cc2c[nH]c3ccccc23)cc1	4.1	i	/	/	/	0.7	2	-1.8	/
CCCCOc1ccc(-c2nc(-c3cccnc3)no2)cc1	-0.7	/	/	/	/	0.77	1	/	0%
N/C(=N\OC(=O)CCCC(=O)O)c1ncc(C(F)(F)F)cc1Cl	1.4	i	13	10	-0.4	/	-12	-1.1	-6%
CC(C)CC(=O)NC1(C(F)(F)F)C(=O)N(CC(C)C)C2=C1C(=O)CC(C)(C)C2 (centres undefined)	3.8	/	/	/	/	0.73	-13	/	/
CC(C)C(=O)NNC(=O)CSc1nnnn1C(C)C	2.7	i	12	12	-2.6	0.68	-1	-1.7	/
COC(=O)COc1nc(C)c(Br)c(OC)n1	1.0	/	/	/	/	0.72	/	/	4%
COCOc1ccc(C=O)c(O)c1	7.0	i	/	/	/	0.77	-28	-0.9	/
O=C(NCCn1cc(SCC(=O)N2CCOCC2)c2ccccc21)c1ccccc1	-4.8	i	-3	1	-0.8	0.74	8	3.7	12%
O=C(NCCc1ccccc1)C1CCCN(S(=O)(=O)c2cccc3nsnc23)C1 (centres undefined)	-1.3	/	/	/	/	0.7	2	/	/
Cc1cnc(NC(=O)Cc2cccs2)s1	7.0	i	5	-2	1.1	0.67	-13	1.0	/
NC(=O)C1(N2CCCCC2)CCN(C(=O)c2ccccc2)CC1	-4.1	i	1	5	-2.9	0.74	-21	-11	?
CC(C)NC(=O)Nc1ccc2c(c1)C(=O)N([C@H](C)CO)C[C@@H](C)[C@H](CN(C)C)OCCCC[C@@H](C)O2	/	i	5	19	0.1	/	/	-1.4	/
COc1cc(C(=O)NC(=S)Nc2nccs2)cc(OC)c1OC	3.6	i	11	5	-0.1	0.7	-1	0.2	6%
Cc1ccc(C(=O)CSc2cnc3ccccc3n2)cc1C	-0.2	i	-12	-6	0.9	0.69	2	1.0	10%
O=C(COc1ccccc1Cl)NNC(=O)Cn1[nH]c(=O)c2ccccc2c1=O	-1.6	i	6	6	-1.8	0.68	/	-27	/
COc1ccc(CC(=O)NNC2=Nc3cccc4cccc2c34)cc1	9.1	i	/	/	/	/	-31	-1.3	/
C=CCN1C(=O)c2ccc(C(=O)OCC(=O)Nc3ccccc3OC)cc2C1=O	-2.0	i	9	17	-2.7	0.71	-1	-10	-10%
O=C(c1ccccc1)c1ccccn1	-2.2	i	15	17	3.1	0.68	-6	-0.9	8%
CCc1ccc(NSc2ccccc2[N+](=O)[O-])cc1	-0.4	i	-52	-67	-19	0.62	-19	?	30%
Cc1ccc(S(=O)(=O)N[C@@H]2CC[C@H](CCNS(=O)(=O)Cc3ccccc3)O[C@H]2CO)cc1	/	i	0	3	-1.9	/	/	-2.9	/
CCc1ccc(OC)c(S(=O)(=O)NCCOc2ccccc2)c1	2.6	i	-27	-26	-5.5	0.67	12	2.4	10%
Nc1ccc(NC(=O)c2ccc(C(=O)Nc3ccc(N)cc3)cc2)cc1	15	i	6	11	3.5	/	-9	-1.2	-9%
CCOC(=O)c1cnc(-n2nc(C)cc2C)nc1NNc1ncc(-c2ccccc2)cn1	/	/	/	/	/	0.63	-2	/	-11%
CCOC(=O)C1=CCN(S(=O)(=O)c2ccc(C)cc2)C1c1ccc(Cl)c(Cl)c1 (centres undefined)	-5.6	i	-2	-1	-0.1	/	/	-3.7	/
CC(C)Oc1cc(F)ccc1-c1cc(C(=O)NCCc2ccncc2)[nH]n1	3.5	i	-8	-27	-0.8	/	/	2.5	/

Next results follow.
SMILES	HNF4A DNA FP	FGF22 binding	Ecoli rRNA inh	Ecoli rRNA inh OD600	Ecoli rRNA inh RFP	E coli growth	ALR inh	AF4-AF9 inh	Vif TR-FRET
COCC#Cc1ccc2c(c1)O[C@H](CN(C)Cc1ccc(F)cc1)[C@H](C)CN([C@H](C)CO)S2(=O)=O	/	i	4	-9	-0.8	/	/	5.9	/
CO[C@H](CN(C)S(=O)(=O)c1ccc(Cl)cc1)[C@H](C)CN(C(=O)Nc1ccccc1F)[C@H](C)CO	/	i	-2	13	-6.7	/	/	-0.3	/
CO[C@@H]1CN(C)C(=O)c2cc(NC(=O)C3CC3)ccc2OC[C@@H](C)N(Cc2ccncc2)C[C@@H]1C	/	i	-2	-4	-0.1	/	/	0.6	/
O=C(CSc1ccc2ccccc2n1)Nc1nsc(-c2ccc(Cl)cc2)n1	8.6	i	10	10	-3.7	0.7	-3	-1.9	/
COc1cccc(NC(=O)N2C[C@H](O)COC[C@@H]3O[C@H](CC(=O)NCCCN4CCOCC4)CC[C@H]32)c1	/	i	-3	13	-0.3	/	/	-1.3	/
Cc1ccc(/C=C2/Sc3ccccc3N(CC(=O)NCC3CCCO3)C2=O)cc1 (centres undefined)	-0.1	/	/	/	/	0.68	-5	/	/
CCOCCn1c(CN2CCCC(C)C2)nc2c1c(=O)n(C)c(=O)n2C (centres undefined)	-1.9	i	-3	7	0.4	0.76	0	0.5	/
CCCCCCSc1ccc(-c2nc3cnccn3c2NC2CCCCC2)cc1	15	i	/	/	/	/	/	2.0	/
CN(CCOc1ccccc1)CC(=O)Nc1ccc(S(=O)(=O)N2CCCC2)cc1	1.4	i	-20	-12	-7.7	0.68	-4	1.7	-4%
COc1ccc(S(=O)(=O)N2CCN(c3c(C)cccc3C)CC2)cc1OC	2.9	i	-3	-3	-2.9	0.81	/	-0.8	2%
C/C(=N/NC(=O)c1cccs1)c1ccc(NC(=O)COc2ccc(Cl)cc2Cl)cc1	1.2	/	/	/	/	/	-3	/	-2%
O=C(N[C@H]1CC[C@H](CCNC(=O)C2CCCC2)O[C@@H]1CO)c1ccccn1	/	i	-2	8	0.9	/	/	-2.6	/
Cc1c2c(n3c(nc4ccccc43)c1C#N)N(CCCN(C)C)CC2	-0.6	i	-7	-5	2.5	0.72	5	-2.9	15%
Cc1ccc(CN2CCN(Cc3cccn3-c3ccccn3)CC2CCO)o1 (centres undefined)	-2.8	i	9	2	-1.1	0.71	-3	2.6	-2%
O=S1(=O)CCOC[C@H](Cc2ccccc2)N1Cc1ccccc1	4.5	i	-24	-32	-30	/	11	-2.2	/
CCn1c(CNc2ccc(Cl)cc2)nnc1SCc1ccc(Cl)cc1	-1.8	/	/	/	/	0.66	-2	/	/
O=S(=O)(NC(=NC1CCCCC1)c1ccccc1)c1ccccc1	1.1	i	-3	-4	-0.4	0.73	3	-2.4	/
CN1CCN(C(=O)N2c3ccccc3C=Cc3ccccc32)CC1	-0.5	/	/	/	/	0.67	1	/	-1%
O=C(Nc1ccccc1F)c1ccc(CSc2ccccc2)o1	3.8	i	-32	-37	-1.8	0.65	-16	-3.3	/
